Source: PubChem (National Center for Advancing Translational Sciences (NCATS))
TRPML1 blocker – blocks the human TRPML1 channel; activity change, negative = inhibition, % (concentration not given with the values); AID 624415; hit rate 0.02% among 390,000; TRPML1-inducible cells, Ca2+ dye fluorescence, FDSS; stronger effect = lower value; inhibition of EC80 agonist-evoked calcium signal; in the data active means activity change below about -50%; inconclusive means about -30% to -50%; inactive means above about -30%;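 also: stimulus is agonist 54-4 at its EC80 concentration; % is scaled to controls: 0 for no effect and ±100 for the full control effect; compound concentration not given in the record; the text of the record puts the active cut at -80%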
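Tet-induced TRPML1-DL cells loaded with Ca8 no-wash calcium dye were read kinetically on FDSS. Compound addition was followed by EC80 agonist 54-4 (4 uM final); inhibition was read over 110 s.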
TRPV1 potentiator – enhances activation of the human vanilloid receptor TRPV1. Q8NER1. TRPV1-expressing cells, Fluo-8 calcium influx, capsaicin EC20 potentiation; host cell line not named in the record; control for the full effect not named in the record. potentiation, % at 8.33 µM. hit rate 0.02% among 320,000; active means potentiation above 80%; inconclusive means 30% to 80%; inactive means below 30%; also: 0% is about no effect
Target sequence (Q8NER1 whole entry, looked up): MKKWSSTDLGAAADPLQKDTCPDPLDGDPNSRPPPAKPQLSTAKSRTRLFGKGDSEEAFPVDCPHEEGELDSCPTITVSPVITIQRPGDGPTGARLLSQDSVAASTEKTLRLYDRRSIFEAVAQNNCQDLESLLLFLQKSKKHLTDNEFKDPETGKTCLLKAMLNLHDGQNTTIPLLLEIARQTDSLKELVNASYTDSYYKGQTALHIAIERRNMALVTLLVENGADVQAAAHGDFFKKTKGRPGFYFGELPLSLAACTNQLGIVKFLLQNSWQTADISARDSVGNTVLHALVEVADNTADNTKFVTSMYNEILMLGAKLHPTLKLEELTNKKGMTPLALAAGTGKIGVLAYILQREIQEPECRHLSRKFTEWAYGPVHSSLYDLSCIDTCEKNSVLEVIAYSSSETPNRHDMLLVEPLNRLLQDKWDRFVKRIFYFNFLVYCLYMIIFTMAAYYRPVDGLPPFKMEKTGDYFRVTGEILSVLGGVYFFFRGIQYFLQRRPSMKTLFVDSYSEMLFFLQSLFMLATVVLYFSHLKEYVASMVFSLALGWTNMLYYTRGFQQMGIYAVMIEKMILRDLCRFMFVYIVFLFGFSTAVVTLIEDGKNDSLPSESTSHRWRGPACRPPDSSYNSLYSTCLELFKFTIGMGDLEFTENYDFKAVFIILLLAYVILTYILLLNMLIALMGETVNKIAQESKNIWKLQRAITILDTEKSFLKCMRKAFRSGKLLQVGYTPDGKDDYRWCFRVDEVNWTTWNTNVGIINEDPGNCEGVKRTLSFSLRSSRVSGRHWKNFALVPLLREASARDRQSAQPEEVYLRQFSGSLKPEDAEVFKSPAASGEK
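Cells expressing TRPV1 were dye-loaded with Fluo-8 and read kinetically: 10 s baseline, 3 min after compound (agonist portion), then 2 min after EC20 capsaicin (allosteric enhancer portion). Calcium-bound dye fluorescence at 480/520 nm.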
Menin-MLL FL inh – menin-MLL binding inhibition, fluorescein peptide; Fluorescence polarization, fluorescein-MLL peptide displacement from menin; FP activity change, % at 61.4 µM; 290,000 tested, under 10 active; AID 1766; inconclusive = falling polarisation curve, or a change in total fluorescence; inactive = total fluorescence flat and polarisation flat or rising; no compound was filed as active; the % refers to the polarisation; negative = inhibition;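 also: % of control where 0% means no effect; inhibitors lower the polarisation; unlabelled MLL peptide was the positive control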
gsp antag – antagonists of gsp mutant (McCune-Albright syndrome); gsp-mutant cells, cAMP HTRF, 30 min; control for the full effect not named in the record; Potency, µM (doses to about 76.9 µM), inactives show top-dose activity change, negative = inhibition, most hits filed as inhibitors; hit rate 0.4% among 340,000; AID 624288; active = falling curve of any shape with a large fitted effect; inconclusive = falling curve, mostly with a smaller effect; inactive = flat or rising curve; cell line not stated here;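 also: intracellular cAMP measured with PDE inhibitor Ro 20-1724 present during compound exposure; potency is read from the fitted curve at half-maximal effect; % is scaled to controls: 0 for no effect and ±100 for the full control effect; nearly all actives have a fitted effect of over 65% in size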
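HTRF cAMP measurement after 30 min RT detection following 30 min, 37C compound treatment alongside […] (added as 300 uM solution) in G418-selected cells seeded at 2000/well and grown 16–24 h.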
Sfp PPTase inh – inhibitors of Bacillus subtilis Sfp phosphopantetheinyl transferase. Potency, µM, for inactives: max response, negative = inhibition, actives largely listed as inhibitors. hit rate 3.5% among 310,000. Q9F4F7. AID 1490. Biochemical Sfp PPTase activity, qHTS; active = well fitted inhibition curve with a large enough effect; inconclusive = small, poorly fitted or top-dose-only effect, or another doubt; inactive = no such curve, though single readings can be large or run the other way;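 also: the enzyme is Sfp with the accession as filed and its product quenches rhodamine fluorescence; potency is read from the fitted curve at half-maximal effect; 0% = enzyme reaction without inhibitor and -100% = no enzyme wells; top concentration of the series not given in the record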
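With Hepes-Na pH 7.6 buffer containing 10 mM MgCl2, Sfp (15 nM) modified BHQ-2-YbbR (12.5 uM) using rhodamine-CoA (5 uM). Two reads 30 minutes apart at 525/598 nm yielded each well's rate.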
gsp agonist – gsp mutant agonism. hit rate 0.13% among 340,000. Potency, µM (titrated, usually from 76.9 µM), inactives show top-dose activation (cAMP increase), actives largely listed as activators. gsp mutant cells, cAMP HTRF, 30 min; control for the full effect not named in the record; active = well fitted activation curve with a large enough effect; inconclusive = small, poorly fitted or top-dose-only effect, or another doubt; inactive = no such curve, though single readings can be large or run the other way; cell line not stated here;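 also: phosphodiesterase inhibitor Ro 20-1724 added with compounds to block cAMP breakdown; potency is read from the fitted curve at half-maximal effect; nearly all actives have a fitted effect of over 60% in size; about a fifth of the inactives were tested at one dose only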
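Cells stably selected in G418 were plated at 2000/well, grown 16-24 hr, then given compounds in DMSO with the PDE inhibitor […] (300 uM solution added) for 30 min at 37C; cAMP was read by HTRF.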
ClpP mod – qHTS Assay for Activators of ClpP; hit rate 1.9% among 340,000; Potency, µM (titrated, usually from 57.5 µM), inactives show top-dose activity change, negative = active; ATP-dependent Clp protease proteolytic subunit (Bacillus subtilis (strain 168)), P80244; purified B. subtilis ClpP, FRET peptide cleavage, 20 min; active = well fitted falling curve with a large enough effect; inconclusive = small, poorly fitted or top-dose-only effect; inactive = no such curve, though single readings can be large or run the other way; also: potency is read from the fitted curve at half-maximal effect; the source files actives as falling curves though it sought activators and does not explain the sign; nearly all actives have a fitted effect of over 65% in size; many hits overshoot -100%
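Purified B. subtilis ClpP, 10 microg/mL final in Tris/HCl pH8 with KCl, BSA, glycerol and Tween-20, cleaved an Abz/nitrotyrosine-quenched decapeptide. Fluorescence (ex 320, em 430) was read at 0 and 20 min at room temperature. Delta was normalized to 5.8 microM ADEP and DMSO/no-enzyme controls.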
Starred values were filed as active, the others as inactive; ? = inconclusive; . = not tested or not shown; & = joins results of further samples; [ ] = remark or other dose.

structure,TRPML1 blocker,TRPV1 potentiator,Menin-MLL FL inh,gsp antag,Sfp PPTase inh,gsp agonist,ClpP mod
CC(C)(C)c1cc(CNC2CS(=O)(=O)C[C@@H]2O)cc(C(C)(C)C)c1O (some centres undefined),-8,-15,1.6,-9%,12%,29%,-1.5%
CC(=O)OC1CCC2C3CCc4cc(O)ccc4C3CCC12C (centres undefined),29,.,?,-8%,9%,.,0.9%
Cc1ccc(OCC(=O)N/N=C\c2c(C)n(C)c3ccccc23)c([N+](=O)[O-])c1,-20,-21,2.3,4%,16%,2%,-0.6%
COC(=O)/C(=C\Nc1ccc(Cl)cc1Cl)NC(=O)c1ccccc1,-18,-22,-5.3,-10%,-1%,?,-1.7%
CCCC(c1nnnn1C1CCCCC1)N1CCN(c2ncccn2)CC1 (centres undefined),1,1,0.5,0%,18%,-12%,2.2%
CCOC(=O)c1cc2ccc(OC)cc2oc1=O,9,-4,5.3,-3%,7%,-12%,-24%
COC(=O)C1(C)NC(c2ccccc2C)C2C(=O)N(c3ccccc3)C(=O)C21 (centres undefined),-16,4,3.3,-30%,-3%,1%,1.9%
COc1cc(/C=C2\SC(=S)N(CCC(=O)NC3CCCC3)C2=O)cc(OC)c1OC,2,-1,12,11%,-4%,-3%[15.4 µM],.
Cc1ccc(C23CC4CC(CC(NC(=O)NC(C)(C)CO)(C4)C2)C3)cc1,10,-2,2.9,-4%,16%,-20%,1.9%
Oc1ccc(N2CCN(CC(O)c3ccccc3)CC2)cc1 (centres undefined),-18,14,-4.1,-7%,50µM*,17%,.
O=C(Nc1cc(C(F)(F)F)ccc1N1CCOCC1)c1cccs1,-6,-14,1.9,10%,-5%,-34%[inhibitor],2.7%
O=C(CSc1ccc(Cl)cc1)NC1CCCC1,-3,-10,2.5,-8%,16%,-32%,-0.5%
O=C(CSC(=S)N1CCCC1)NCC(=O)Nc1ccccc1Br,-9,10,.,1%,.,4%,3.1%
Cn1nc(C(=O)Nc2ccc(S(=O)(=O)NCc3ccco3)cc2)c2ccccc2c1=O,11,-10,2.4,-29%,3%,-12%,-2.0%
CCOC(=O)C1CCN(S(=O)(=O)c2ccc3c(c2)NC(=O)CS3)CC1,29,-9,.,-6%,3%,28%,-3.4%
CC(=O)N1CCc2cc(S(=O)(=O)Nc3cccc(C(F)(F)F)c3)ccc21,3,4,-2.4,?,7%,?,-0.3%
O=C(NN1C(=O)C2C3C=CC(O3)C2C1=O)c1cccc(Br)c1 (centres undefined),-8,1,-1.4,18%,40µM*,-12%[15.4 µM],.
Cc1ccc(S(=O)(=O)N2CCCC2CO)cc1 (centres undefined),-12,2,-0.1,-12%,10%,-5%,0.8%
Cn1nnnc1SCC(=O)Nc1ccc(N2CCOCC2)cc1,-2,-3,0.9,-1%,-10%,-58%,0.6%
CCOc1ccccc1NC(=O)CN1CCC(C(=O)c2ccc(F)cc2)CC1,9,-9,3.4,-30%,-1%,-6%,.
Cc1cccc(C)c1OCc1cc(C(=O)NCC2CC2)no1,13,-11,.,-3%,10%,-9%,-0.3%
O=C(NCCOc1ccccc1F)c1ccc2c(=O)n3c(nc2c1)CCC3,-1,14,.,8%,.,10%,-24%
CCn1nc(C)c(NC(=O)c2cnn3c(C(F)F)cc(-c4ccccc4)nc23)c1C,42,7,-3.0,-7%,1%,1%[15.4 µM],.
Cc1cccc(NC(=O)N2C3CCCC2CC(NC(=O)C2CC2)C3)c1 (centres undefined),11,21,6.3,2%,7%,?,.
CCCCCCn1c(N2CCN(c3ccccc3)CC2)nc2c1c(=O)n(C)c(=O)n2C,39,-16,0.2,0%,?,3%,0.2%
C/C(CC(=O)Nc1ccccn1)=N\NC(=O)c1ccccc1,.,-1,2.3,.,15%,.,.
COc1ccc(N2CC(C(=O)Nc3nccs3)CC2=O)cc1 (centres undefined),-6,-6,-3.7,3%,25%,-14%,1.0%
O=C(Cn1ncc2c(=O)oc3ccccc3c21)N1CCC(N2CCCCC2)CC1,25,18,1.0,-2%,13%,-5%,0.6%
O=C(Nc1nc2ccccc2n1CCN1CCCCC1)C1CCCCC1,-19,-28,?,3%,18%,?,-1.2%
O=C(OCCOc1ccccc1)c1n[nH]c2ccccc12,27,30,5.8,13%,-1%,-12%[15.4 µM],.
CCOc1ccc(Cl)cc1C1=CC(=O)C[C@H](c2ccc(OC)cc2)C1,27,5,.,2%,.,19%,-0.1%
CCCCN1C(=O)C2NN=C(C(=O)OC)C2C1=O (centres undefined),-5,-1,1.2,7%,4%,-30%[inhibitor],-0.8%
Cc1ccc(SCCNC(=S)Nc2ccc(C)c(C)c2)cc1,-6,0,2.5,-33%,33%[activator],?,-2.6%
O=C(CN1c2cccc3cccc(c23)S1(=O)=O)NCc1ccc(F)cc1,19,.,.,-11%,.,18%,.
CCc1ccc2nc(NC3=NCN(CCN4CCOCC4)CN3)nc(C)c2c1,.,3,0.3,.,10%,.,.
COc1ccc(C(NC(C)=O)c2c(O)ccc3ccccc23)cc1OC (centres undefined),-5,-11,1.0,16%,-14%,-4%,?
CC(C)(C(=O)O)c1ccc(C(O)CCCN2CCC(C(O)(c3ccccc3)c3ccccc3)CC2)cc1 (centres undefined),2,28,6.8&-3.8&4.8&-2.1,3%,8%&15%&15%,.,-0.6%
Cc1ccccc1NC(=O)CN1CCOCC1,34,-1,1.7,4%,3%,-5%[15.4 µM],-1.3%
O=S(=O)(Nc1ccccc1)c1cccc2nonc12,-2,-11,-4.8,-5%,6%,?,-1.0%
COc1ccc(-c2cc(C)no2)cc1S(=O)(=O)N1CC(=O)Nc2ccccc21,-17,-7,?,?,4%,-5%,-10%
Cc1ccc(S(=O)(=O)Nc2ccccc2N=Cc2c(F)c(F)c(F)c(F)c2F)cc1,45,.,.,-6%,.,-17%,-1.6%
CCOC(=O)c1ccc(NC(=O)Cn2nnc3ccccc32)cc1,-22,8,-1.8,-9%,-7%,-2%,1.5%
COc1ccc(/C(C)=N/NC(=O)c2ccccc2OCc2ccccc2)c(OC)c1,-12,-12,-5.6,-10%,-15%,-1%[15.4 µM],.
COc1ccc(-n2cnc3cc(NCc4ccco4)ccc32)cc1,7,-14,-1.0,-16%,0%,?,-24%
COc1ccc(-c2[nH]ncc2Oc2ccccc2OC)c(O)c1,7,14,4.5,13µM*,7%,-12%,-2.4%
COc1ccc(C2=NN(C(=O)CSc3nnc(C)n3C)C(c3ccco3)C2)cc1 (centres undefined),10,-3,-2.5,0%,-2%,?,-6.3%
CC(C)Cc1c(O)nc(SCC(=O)N2CCCCCC2)[nH]c1=O,27,-1,3.8,2%,2%,-21%,.
CC1CC(CC(=O)Nc2nc(-c3ccccc3)cs2)C(=O)O1 (centres undefined),11,0,2.9,9%,8%,-63%[inhibitor],0.2%
CCCCCOc1ccc(C(=O)NC(C(=O)O)C(C)C)cc1 (centres undefined),1,13,0.0,-13%,23%,-19%,-0.2%
O=C1C[C@@H]2c3c(cccc3CN1Cc1ccc(F)cc1)C[C@@H](O)[C@H]2O,16,5,.,8%,.,.,-1.5%&3.6%
Cc1ccc(C(=O)COC(=O)c2cccc([N+](=O)[O-])c2)s1,3,9,.,0%,.,20%,0.3%
CN(C(=O)COC(=O)CCC(=O)c1ccccc1)c1c(N)n(Cc2ccccc2)c(=O)[nH]c1=O,2,3,.,0%,.,-14%,1.2%
COC(=O)[C@@H]1CC[C@H](C)[C@@H](c2ccc(C)cc2)N1C(=O)c1ccc(/C=N/O[C@@H](C)CN2CCCCc3nc(C)c(C)cc32)cc1,.,-1,?,.,25µM*,.,.
Cc1ccc(CN2Cc3cccc4c3[C@@H](CC2=O)[C@H](O)[C@H](O)C4)cc1,29,3,.,3%,.,.,0.8%
Cc1cc(C(=O)CSc2n[nH]c(N)n2)c(C)n1C1CC1,32,-11,3.4,-12%,-34%,-4%,-1.0%
O=C(c1ccc(-c2ccccc2)cc1)N1CCN(c2ccccc2)CC1,-15,-8,-0.7,7%,?,-1%,0.0%
O=C1CSCN1c1ccc(Cl)cc1,2,-4,0.5,-14%,-6%,-22%,0.9%
Cc1cc(NC(=O)CSCC(=O)Nc2ccc(C)c(C)c2)no1,3,3,.,7%,.,-1%,-0.8%
COc1ccc(CCNC(=O)c2ccc(COc3ccccc3OC)o2)cc1,4,-3,-3.4,-11%,11%,1%,2.0%
CN(C)S(=O)(=O)c1cccc(C(=O)Nc2cccnc2)c1,10,6,-4.7,4%,11%,?,-1.4%

Rows are unselected; overall some 4.9% were active at least once.
